Sa growth inh: blocks Staphylococcus aureus growth. S. aureus RN4220 growth, OD600, 20 h, 42 °C; active compounds read low. relative growth, % (no concentration beside the values). hit rate 0.53% among 170,000. AID 720641;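 active = growth at 42 °C up to 50% and 20 or more points under that at 30 °C, or under 10% at both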;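 note: 300 nL library stock went into each well; scaled to the means of positive and negative controls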
HCMV UL50-53 inh: cytomegalovirus nuclear egress complex inhibition; HTRF UL50-UL53 interaction, normalized percent inhibition; inhibition, % (test concentration not listed); hit rate 0.15% among 190,000;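 active = both replicates at 50% or more, plus weaker picks with an unusually low signal ratio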;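 note: stock transfer was 100 nL into about 20 µL; 0% = negative control wells and 100% = wells with untagged competitor protein; inactives centre near -12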
GIV Gai3 FP: inhibitors of GIV GBA-motif binding to rat Galpha-i3. P08753. Galpha-i3/FITC-GIV peptide fluorescence polarization, 90 min; active compounds read low; scaled: aluminum fluoride 0%, vehicle 100%. hit rate 0.42% among 210,000. percent of control (FP), % (test concentration not listed);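 active = replicate mean at 85% of control or lower, very high polarization wells dropped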;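 note: lower values mean more displacement of the GIV peptide from Galpha-i3; wells of about 15 µL received 100 nL stock; the first replicate is given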
Target sequence (P08753 whole entry, looked up): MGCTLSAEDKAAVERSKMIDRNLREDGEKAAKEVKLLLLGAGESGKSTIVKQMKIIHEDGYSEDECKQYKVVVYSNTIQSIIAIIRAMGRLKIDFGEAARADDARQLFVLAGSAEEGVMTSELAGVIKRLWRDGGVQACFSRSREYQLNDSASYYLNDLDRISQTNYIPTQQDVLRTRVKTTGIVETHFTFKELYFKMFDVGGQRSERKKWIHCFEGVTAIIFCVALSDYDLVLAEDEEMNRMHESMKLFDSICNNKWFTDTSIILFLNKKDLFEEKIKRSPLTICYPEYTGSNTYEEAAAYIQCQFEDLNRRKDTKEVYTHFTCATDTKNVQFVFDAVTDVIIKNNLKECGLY
Sa growth inh second temp: also measured in Sa growth inh; calls as there; relative growth, %; measured here: growth at 30 °C;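 optical density after 20 h as mean of two plates; 100% = untreated growth and lower means inhibition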
Numbers without * were called inactive; / = not tested or not shown; & = joins results of further samples.

SMILES	Sa growth inh	Sa growth inh second temp	HCMV UL50-53 inh	GIV Gai3 FP
O=C1CCS(=O)(=O)N1c1ccc(S(=O)(=O)NC2CCS(=O)(=O)C2)cc1 (stereo unspecified)	/	/	-33	105
c1ccc(CCNc2nnnn2-c2ccccc2)cc1	100	95	-23	/
Cc1noc(C)c1CSc1nnc2ccccn12	100	99	13	/
O=C(CN1C(=O)c2cccnc2Sc2ccccc21)NCCc1c[nH]c2ccc(Cl)cc12	/	/	-10	99
O=C(NCc1ccncc1)c1ccc(CSc2ncn[nH]2)cc1	65	81	-23	/
CCc1ccccc1NC(=O)C=C(C)C	102	101	14	109
C#CCOc1ccccc1C(N)=O	64	94	-23	/
CC1(C)Cc2cccc(OCC(=O)OCc3nnc(-c4ccccc4)o3)c2O1	87	85	-46	/
COC(=O)C1=C(C)NC2=C(C(=O)CC(c3ccc(OC)cc3)C2)C1c1cc(OC)c(OC)c(OC)c1 (stereo unspecified)	/	/	-30	98
NC(N)=N/N=C/c1ccccc1	94&88	94&73	-2&-45	105&105
Cc1ccc(NC(=O)CSc2nc3c(oc4ccccc43)c(=O)n2Cc2ccco2)cc1F	87	82	1	101
Cc1ccccc1C(=O)Nc1sc2c(c1C(=O)N1CCC(C)CC1)CCCC2	95	94	-14&4	108&99
COc1ccc(C2c3cccn3-c3sc4c(c3CN2C(=O)Nc2ccc(OC)cc2OC)CCN(C)C4)cc1 (stereo unspecified)	/	/	-18	107
COc1ccc(NC(=O)c2cc3nc(C(F)F)cc(C(F)F)n3n2)cc1OC	109	102	-12	106
COc1ccc(Cc2nnc(SCC3CC3)n2-c2ccc(F)cc2)cc1OC	95	84	-32	102

Single records (already shown). Order of screens: Sa growth inh | Sa growth inh second temp | HCMV UL50-53 inh | GIV Gai3 FP
Listed for COc1ccc(Cc2nnc(SCC3CC3)n2-c2ccc(F)cc2)cc1OC → 95 | 84 | -32 | 102
Listed for O=C(CN1C(=O)c2cccnc2Sc2ccccc21)NCCc1c[nH]c2ccc(Cl)cc12 → / | / | -10 | 99
Listed for O=C1CCS(=O)(=O)N1c1ccc(S(=O)(=O)NC2CCS(=O)(=O)C2)cc1 (stereo unspecified) → / | / | -33 | 105
Listed for O=C(NCc1ccncc1)c1ccc(CSc2ncn[nH]2)cc1 → 65 | 81 | -23 | /
Listed for COC(=O)C1=C(C)NC2=C(C(=O)CC(c3ccc(OC)cc3)C2)C1c1cc(OC)c(OC)c(OC)c1 (stereo unspecified) → / | / | -30 | 98

Next part.
SMILES	Sa growth inh	Sa growth inh second temp	HCMV UL50-53 inh	GIV Gai3 FP
CCOC(=O)C1C(=O)N(C(=O)c2ccc(OC)cc2)CC1c1ccccc1 (stereo unspecified)	93	92	2	113
CCN(CC)CCn1c(C)c(C)c2c1ncn1nc(-c3ccccc3)nc21	/	/	-7	104
CCN1c2ccccc2-c2nc3ccccc3n2C1c1ccccc1 (stereo unspecified)	107	83	/	104
CCOc1ccc(N2C(=O)CSc3c(c(C)nn3-c3ccccc3)C2C(=O)NCc2ccccc2OC)cc1 (stereo unspecified)	/	/	-6	103
O=C(c1nn2c(c1Cl)NC(c1ccccc1)CC2C(F)(F)F)N1CCN(Cc2ccccc2)CC1 (stereo unspecified)	/	/	-18	91
CN1C(=O)CC(c2ccsc2)Sc2ccccc21 (stereo unspecified)	96	87	-31	98
Nc1c(C(=O)Nc2ccc3ccccc3c2)sc2nc3c(cc12)CCCC3	/	/	-7	99
c1csc(-c2ncc3ccccn23)c1	126	65	-76	124
Cc1ccc(S(=O)(=O)c2c(O)c3ccc(C(=O)N4CCOCC4)cc3[nH]c2=O)cc1	98	87	-5	96&102
O=C(O)CNC(=O)c1ccc(S(=O)(=O)N2CCCC2)cc1	104	96	-8	98
CCOc1ccc(CN(C(=O)c2cc(=O)c3cc(Cl)ccc3o2)C2CCS(=O)(=O)C2)cc1 (stereo unspecified)	100	92	0	106
COc1ccccc1/C=C1\SC(=S)N(C(Cc2ccccc2)C(=O)O)C1=O (stereo unspecified)	/	/	-56	98
Cc1ccc2oc(=O)c3cc(C(=O)NCc4ccc(C)o4)sc3c2c1	114	80	-2	107
CC(C)(C)OC(=O)N1CCC(c2c(C(=O)NC3CCCCC3)cnn2-c2cccc(F)c2)CC1	105	105	/	103
COC(=O)c1ccc(N2N=C(C)/C(=C/c3ccc(-c4cccc(C(=O)O)c4)o3)C2=O)cc1	/	/	-20	86
Cc1ccc(C)c(N2CCN(CCCNC(=O)c3cn[nH]c3C3CCNCC3)CC2)c1	92	94	-13	102
O=C(O)c1cccc(-n2cnc3cccnc32)c1	97	81	-28	102
Cc1cc(C)cc(OCC(=O)N2CCC(c3nc4ccccc4o3)CC2)c1	101	83	-35	104
O=c1c2ccccc2[nH]c(=S)n1Cc1cccnc1	93	84	-10	99
COc1ccc(C2CC(=O)N(c3ccc(F)c(C)c3)C(=O)C2)cc1	/	/	-14	102
Cn1cc2ccc(N)cc2n1	119	81	-7	107
COC(=O)C1C(=O)C2=C(CC1C)Nc1ccccc1NC2c1cc(F)ccc1F (stereo unspecified)	109	85	-11	104
CCc1ccc(NC(=O)c2sc3[nH]c(=O)c(C(=O)O)cc3c2N)cc1	124	86	/	101
O=C(Nc1ccc(Cl)cc1)Nc1cccc(-c2cn3cccnc3n2)c1	102	97	/	97
CCC(=O)Nc1ccccc1C(=O)NC(C)(C)C	99	96	-13	106
COc1ccccc1-c1c(C)nn2c(SCC(=O)NCc3ccccc3Cl)cc(C)nc12	/	/	10	105
O=C(Cc1ccccc1)Oc1ccc(C2SCCS2)cc1	108	80	-11	/
CCC1=Nc2cc(C(=O)N3CCc4ccccc4C3)ccc2Sc2ccccc21	80	56	/	101
CCOC(=O)c1cc2c(=O)n3ccccc3nc2n(C(C)C)c1=NC(=O)c1c(-c2ccccc2Cl)noc1C	99	88	-23	102
Nc1cccc(NC(=O)c2cccc(S(=O)(=O)Nc3cccc(N)c3)c2)c1	110	86	/	102
CN1CCN(c2nc(N3CCOCC3)nc3c2cnn3C)CC1	/	/	14	106
Cc1cc(C)c(S(=O)(=O)Nc2ccc3oc(C)c(C(=O)OC(C)C)c3c2)c(C)c1	/	/	-22	103
Cc1ccc(Sc2c(C)[nH]n(C(C)(C)C)c2=O)cc1	101	88	/	101
C=CCC(CC=C)(CNC(=O)C(=O)Nc1ccc(C)cc1)c1ccccc1	86	91	-2	100
CN(C)S(=O)(=O)c1ccc(C#N)cc1	131	90	-4	/
COc1cccc(NC(=O)CCN2C(=O)c3ccccc3Sc3ncccc32)c1	94	108	/	103
COc1cc(C2NC(=O)N(C)C(C)=C2C(=O)OC2CCCCCC2)cc(Br)c1O (stereo unspecified)	/	/	-4	104
O=C(NC(O)C(=O)c1ccccc1)c1cccs1 (stereo unspecified)	93	69	-5	107
Cc1cc(NC(=O)c2sc(Nc3ccccc3)c(C#N)c2N)no1	104	85	-1	103
CCCC1CC(C)(c2csc(Cc3ccc(OCC)cc3)n2)OC1=O (stereo unspecified)	87	61	-7	99
CCOc1ccc(N=C2C(=O)N(c3ccccc3)c3ccccc32)cc1	/	/	-15	99
O=C(Cc1ccsc1)N1CCCC1c1ccc(Cl)cc1 (stereo unspecified)	/	/	-24	104
CN(C)c1ccc(NC(=O)COc2ccc(C#N)cc2)cc1	108	81	-39	/
CC(Sc1nncn1C(C)C)C(=O)c1c[nH]c2ccccc12 (stereo unspecified)	93	95	-14	/
O=c1c(Cl)c(N2CCCCC2)cnn1C12CC3CC(CC(C3)C1)C2	100	90	-38	104
CCCCOc1ccc(S(=O)(=O)Nc2ccc(-c3ccc(N4CCC(C)CC4)nn3)cc2)cc1	101	90	/	102
Cc1nn(CCc2nc(C(C)(C)C)cs2)c2[nH]c(=O)cc(C(F)(F)F)c12	78	88	-17	/
Cn1c(=O)n(Cc2ccco2)c(=N)c2c3c(sc21)CCCC3	104	92	19	111
COc1ccc(NC(=O)C2CCN(S(=O)(=O)c3cccc(-c4noc(C)n4)c3)CC2)cc1OC	95	87	/	105
CCn1c(C(NC(=O)c2ccc(C)cc2)C(C)C)n[nH]c1=S (stereo unspecified)	103	78	-4	106
Cc1ccc(S(=O)(=O)NC(=O)SC#N)cc1	121	91	1	/
COc1cc(OC)cc(-c2noc(C3CCCN(S(=O)(=O)c4ccc(Br)cc4)C3)n2)c1 (stereo unspecified)	/	/	-22	100
CC(C)OC(=O)c1cc(C(=O)c2cc(F)ccc2O)coc1=N	96	79	-13	/
Cc1ccc(CN2CCc3nc(N4CCN(C)CC4)ncc3C2)cc1	85	93	/	101
CCc1ccccc1NC(=O)CCc1c(C)nn2cnnc2c1C	/	/	-12	101
C[n+]1ccn(CC(=O)c2ccccc2)c1	87	76	-32	108
Cc1ccc(C)c(N2CCN(c3nc4ccccc4c4nc(-c5cccnc5)nn34)CC2)c1	116	90	-12	103
CC(=O)Nn1c(=O)[nH]c2ccccc2c1=O	108	96	-2	108
O=C(NC1CCCCC1)c1cccc(-n2c(=S)[nH]c3cc(Cl)ccc3c2=O)c1	95	80	/	104
O=C(Cn1c(=O)n(Cc2ccco2)c(=O)c2ccccc21)Nc1cccc(F)c1	102	103	11	110
The list continues:
SMILES	Sa growth inh	Sa growth inh second temp	HCMV UL50-53 inh	GIV Gai3 FP
Cc1ccccc1C(=O)On1c(-c2ccccc2F)nc2ccccc2c1=O	/	/	0	103
CCCc1c(C(=O)Nc2cc(C(C)(C)C)on2)cnn1-c1ccccc1	97	86	-22	102
Cc1ccc(CNC(=O)C2COc3ccccc3C2)cc1 (stereo unspecified)	120	103	/	101
O=S(=O)(Nn1cc(-c2ccccc2)[nH]c1=S)c1ccc2c(c1)OCCO2	94	85	-2	/
Cc1cccc(C(=O)N2c3ncnn3C3(CCCCC3)[C@@H]3CCCC[C@@H]32)c1	107	83	-17	100
Cc1ccc(NC(=O)CN2C(=O)C(c3ccc(F)cc3)=NC2(C)C)c(C)c1	106	88	-11	100
CCNC(=O)C(C)NC1CCN(C(C)C)CC1 (stereo unspecified)	97	94	-1	/
CC1(C)C=C(C(=O)N2CCOCC2)C(C)(C)N1	89	90	/	104
CCN(CC)CCNC(=O)C1CCCN(c2nnc(C)c3c(C)n(-c4ccc(Cl)cc4)nc23)C1 (stereo unspecified)	110	96	/	114
CC1=C(c2ccccc2)[N+](=O)C2(CCCC2)N1[O-]	92	86	/	99
CCOC(=O)c1c(-c2ccccc2)oc2ccc(OC(=O)Cc3n[nH]c(=O)c4ccccc34)cc12	122	109	-5	/
Cc1cccc(C)c1NC(=O)C1CCN(S(=O)(=O)c2cccc3nsnc23)CC1	105	96	-70	102
O=C(O)c1ncoc1-c1cccc(C(F)(F)F)c1	106	108	-4	101
CCN(CC(=O)NC1CCS(=O)(=O)C1)c1nc(-c2cccnc2)nc2sc3c(c12)CCCC3 (stereo unspecified)	86	85	-34	/
Cc1nc2nc(CNc3cccc(Cl)c3)[nH]n2c(=O)c1C	/	/	-23	99
COc1ccc(CCNS(=O)(=O)c2ccc(N3CCCCS3(=O)=O)cc2)cc1	118	102	/	105
CCC(=O)N1CCc2cc(Br)cc(S(=O)(=O)NC(c3ccccc3)c3ccccc3)c21	98	86	0	102
COc1cc(-c2nc(C=Nc3cccc(C(=O)O)c3)c(O)o2)cc(OC)c1OC	87	78	-107	102
O=C(CSc1ccc(-c2ccco2)nn1)c1ccccc1	62	60	-55	101
Cc1ccc(S(=O)(=O)c2c[nH]c3cc4c(cc3c2=O)OCO4)cc1	68	74	-3	102
COc1cccc(NC(=O)C2CCCN2S(=O)(=O)c2ccc3nc(-c4ccccc4)[nH]c3c2)c1 (stereo unspecified)	121	80	/	99
Cc1cccc(OCCN)c1C	108	85	-15	102
CCc1ccccc1NC(=O)CCCn1sc2ccccc2c1=O	81	96	/	95
COC(=O)c1cc(NC2=NS(=O)(=O)c3ccccc32)cc(C(=O)OC)c1	94	90	-5	109
COCCN(C(=O)Nc1ccc(OC)cc1OC)C1CCN(C(C)=O)CC1	115	82	/	100
CCc1nnc(NS(=O)(=O)c2ccc(NC(=O)C(C)C)cc2)s1	102	93	20	99
Cc1cc(C)c(Cn2c3ccccc3c3cnn(CC(=O)NCC(C)c4ccccc4)c(=O)c32)c(C)c1 (stereo unspecified)	90	97	-7	103
CCOc1ccc(S(=O)(=O)NCC(=O)NC2CCCCC2)cc1	111	86	-36	/
Cc1ccc(C(=O)COc2cc(C)nc3nncn23)cc1	84	82	-18	102
CC1=C(C(=O)Nc2ccc(Br)cn2)C(c2cccs2)C2=C(CC(C)(C)CC2=O)N1 (stereo unspecified)	/	/	-14	98

Reprinted from the part before: 3 entries, followed by the next part.
SMILES	Sa growth inh	Sa growth inh second temp	HCMV UL50-53 inh	GIV Gai3 FP
CCOc1ccc(S(=O)(=O)NCC(=O)NC2CCCCC2)cc1	111	86	-36	/
Cc1ccc(C(=O)COc2cc(C)nc3nncn23)cc1	84	82	-18	102
CC1=C(C(=O)Nc2ccc(Br)cn2)C(c2cccs2)C2=C(CC(C)(C)CC2=O)N1 (stereo unspecified)	/	/	-14	98
Nc1ccc(OCCOc2ccc(N)cc2)cc1	92	96	-5	/
CCCN1CCC(NC(=O)Nc2ccc(OC)c(OC)c2)CC1	97	105	0	99
COC(=O)c1cc(OC)c(OC)cc1-n1cnc2cc(OC)c(OC)cc2c1=O	90	92	8	108
COc1ccccc1C1=NN(C(=S)Nc2ccccc2)C(c2ccco2)C1 (stereo unspecified)	123	103	-10	108
Cc1ccc(SCC(=O)N=C2NC(=O)CS2)cc1	115	80	-21	141

Source: PubChem BioAssay (ICCB-Longwood Screening Facility, Harvard Medical School)
